From PubChem BioAssay
Measles inh – inhibitors of measles virus growth in cells, primary screen, measles RdRp inhibitor project, cell-based, single point, HTS; infected Vero cells, GFP fluorescence, 64 h; stronger effect = lower value; z-score (test concentration not listed); actives 0.1% (n = 33,000);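 active means z-score under -3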;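 further: score is relative to mean and SD of the compound wells of a plate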
Numbers without * were called inactive. Only part of the results is shown; rates above refer to the full screens.

Measles inh	SMILES
0	O=C(c1ccc(-c2ccccc2)cc1)N1CCOCC1
1.38	O=C1NC(c2ccccc2Cl)Nc2sc3c(c21)CCCC3 (centres undefined)
-1.28	Cc1ccc(-n2c(SCC(N)=O)nc3c(sc4ccccc43)c2=O)cc1
1.36	COc1ccc(NS(=O)(=O)c2cccc3nonc23)cc1
0.54	O=C(CN1c2cccc3cccc(c23)S1(=O)=O)NCc1ccc2c(c1)OCO2
1.8	CCCc1nc(N)c(C#N)c(-c2ccc([N+](=O)[O-])cc2)c1CC
-1.02	O=C(NCc1cccnc1)c1ccc2c(c1)N(Cc1ccccc1Cl)C(=O)c1ccccc1S2
0.08	CCn1cc(SCC(=O)Nc2ccc(C)cc2C)c2ccccc21
-0.03	O=S1(=O)c2cccc3cccc(c23)N1Cc1cccc(C(F)(F)F)c1
-1.52	CC1CCN(C(=O)CSc2nnc(-c3ccc(Cl)s3)o2)CC1
0.9	Cc1ccc(-n2cc(-c3ccccc3)c3c(NCc4ccc5c(c4)OCO5)ncnc32)cc1Cl
-0.74	OC(COc1cccc(Cl)c1)Cn1c(C(F)(F)F)nc2ccccc21 (centres undefined)
0.01	CCCCOC(=O)C1CCCC(C)N1 (centres undefined)
0.17	COC(=O)C1=CN(C2CC2)C=C(C(=O)OC)C1c1cccc(O)c1
-1.35	Cc1sc2ncn(CC(=O)NC3CCCC(C)C3C)c(=O)c2c1S(=O)(=O)N1CCOCC1 (centres undefined)
-0.06	COc1cc(C(=O)Nc2c3c(nn2-c2ccccc2)CSC3)c([N+](=O)[O-])cc1OC
-0.35	Cc1cc2ccccc2c(=O)n1CC(=O)N1CCC(Cc2ccccc2)CC1
-0.31	CCc1ccc(NC(=O)CSc2nc3ccccc3c(=O)n2CCN2CCOCC2)cc1
0.43	COc1ccc(CSc2ccc(C(=O)Nc3ccc(C)c(F)c3)cc2[N+](=O)[O-])cc1
0.21	Cc1cc(C)n2c(Nc3ccc4c(c3)OCCO4)c(-c3ccc(Br)o3)nc2n1
2.19	Cc1nc(SCCN2C(=O)c3ccccc3C2=O)c2c3c(sc2n1)CCC3
0.17	CCn1c(=S)[nH]c2c(c1=O)C1(CCCC1)Cc1ccccc1-2
-1.36	CC(Nc1nc(-c2cccs2)cc(C(F)(F)F)n1)c1ccccc1 (centres undefined)
-0.28	O=C1CC(c2ccco2)CC2=C1C(c1ccc(Cl)cc1)Nc1ccccc1N2 (centres undefined)

Some of the entries above, reformatted:
| SMILES | Measles inh |
| --- | --- |
| CC(Nc1nc(-c2cccs2)cc(C(F)(F)F)n1)c1ccccc1 (centres undefined) | -1.36 |
| O=C1CC(c2ccco2)CC2=C1C(c1ccc(Cl)cc1)Nc1ccccc1N2 (centres undefined) | -0.28 |

Going on with the list:
Measles inh	SMILES
1.51	NC(=O)c1c(NC(=O)c2ccc(Oc3ccccc3)cc2)sc2c1CCCCC2
-0.75	c1ccc(CC23CC4CC(CC(C4)C2)C3)nc1
-0.39	O=C1Nc2ccccc2N2CCCC12 (centres undefined)
-0.19	O=C(Nc1ccccc1C(=O)Nc1ccc(Cl)cc1)c1cccnc1
0.37	COC(=O)c1c[nH]n2c(=O)c(Cl)c(C)nc12
-1.84	O=C(NCc1ccccc1Cl)c1ccc(N2CC3CC(C2)c2cccc(=O)n2C3)c(NS(=O)(=O)c2cccc(Cl)c2)c1 (centres undefined)
-0.42	Cc1ccc(S(=O)(=O)CC(=O)Nc2ccc(S(=O)(=O)Nc3nccc(C)n3)cc2)cc1
-0.66	CC1=C(C(=O)OCCOc2ccccc2)C(c2ccccc2F)C2=C(CC(C)(C)CC2=O)N1 (centres undefined)
-0.24	CN(C(=O)c1cnccn1)C1(C(=O)NC2CCCC2)CCCCC1
-0.13	Cc1ccc(-n2ncc3c(=O)[nH]c(SCC(=O)N4CCc5ccccc54)nc32)cc1
-0.26	Cc1cc(NCCC(C)C)n2c(nc3ccccc32)c1C#N
-1.5	CCC(=O)Nc1ccc(S(=O)(=O)N2CCCCCC2)cc1
-0.42	O=C(O)c1ccc2ncccc2c1
0.56	C=CCn1cc(C(=O)NC2CCCCC2)c(=O)c2cc(S(=O)(=O)N3CCCCCC3)ccc21
-0.83	CC1CN(C(=O)c2cc3cc([N+](=O)[O-])ccc3s2)CC(C)O1 (centres undefined)
-1.3	O=C(O)CNC(=O)c1ccc(N2C(=O)c3ccccc3C2=O)cc1
0.21	COc1ccc(C2=NN(S(=O)(=O)c3ccccc3)C(c3ccccc3)C2)cc1OC (centres undefined)
-1.33	CCOC(=O)C1C(c2ccccc2)NC(=S)NC1(O)C(F)(F)F (centres undefined)
-0.77	NC(N)=NS(=O)(=O)c1ccc(N=Cc2cc(Br)ccc2O)cc1
0.16	CCOC(=O)C(NC(=O)c1ccc(OC)cc1)(Nc1ccc(Cl)cc1)C(F)(F)F (centres undefined)
-0.13	CCC(C(=O)N1CC(=O)Nc2ccc(C)cc2C1c1ccc(F)cc1)c1ccccc1 (centres undefined)
0.37	COc1ccc2sc(NC(=O)c3ccc([N+](=O)[O-])cc3)nc2c1
-0.01	Cc1cc2cc(CCNC(=O)Cc3cccs3)c(=O)[nH]c2cc1C
-0.27	Cc1c(C(=O)N2CCN(C(=O)c3ccco3)CC2)c(-c2ccccc2)nn1-c1ccccc1
-0.89	O=S(=O)(NCCC12CC3CC(CC(C3)C1)C2)c1cccc2ccccc12
-2.02	Clc1ccc(CN2CCN(C3CCCC3)CC2)cc1
-0.28	Cc1ccc(CCNC(=O)C2CCCN(S(=O)(=O)N3CC(C)CC(C)C3)C2)cc1 (centres undefined)
1.5	CC1=C(C(=O)OC(C)C)C(c2ccc(O)c([N+](=O)[O-])c2)C2=C(CCCC2=O)N1 (centres undefined)
-1.22	COC(=O)C1=CN(Cc2ccc3c(c2)OCO3)C=C(C(=O)OC)C1c1cccs1
2.27	Cc1nc2cc([N+](=O)[O-])ccc2n1CCOC(=O)c1ccc([N+](=O)[O-])cc1
0.23	COc1cccc2sc(NC(=O)c3ccc(S(=O)(=O)N4CC(C)CC(C)C4)cc3)nc12 (centres undefined)
0.53	O=C(CSc1nc(NC2CCCCC2)c2ccccc2n1)c1ccc(F)cc1

Given as labelled records: entries from further up.
SMILES: Cc1ccc(S(=O)(=O)CC(=O)Nc2ccc(S(=O)(=O)Nc3nccc(C)n3)cc2)cc1
  Measles inh: -0.42

SMILES: CC1=C(C(=O)OCCOc2ccccc2)C(c2ccccc2F)C2=C(CC(C)(C)CC2=O)N1 (centres undefined)
  Measles inh: -0.66

SMILES: CN(C(=O)c1cnccn1)C1(C(=O)NC2CCCC2)CCCCC1
  Measles inh: -0.24

SMILES: Cc1ccc(-n2ncc3c(=O)[nH]c(SCC(=O)N4CCc5ccccc54)nc32)cc1
  Measles inh: -0.13

Remaining list, next part:
Measles inh	SMILES
0.1	COc1ccc(-n2ncc3c(Nc4cccc(C(C)=O)c4)ncnc32)cc1
-0.39	O=C(NCc1ccccc1)c1cc(N2C(=O)C3C4CCC(C4)C3C2=O)ccc1Cl (centres undefined)
0.35	CC(C)c1ccc(C2=CC(c3ccc(F)cc3)n3ncnc3N2)cc1 (centres undefined)
-1.18	Cc1ccc(-n2nc3c(c2NC(=O)C(C)(C)C)CSC3)c(C)c1
1.11	CCC(C)NC(=O)c1ccc(N2CC3CC(C2)c2cccc(=O)n2C3)c(NC(=O)c2ccc(F)cc2)c1 (centres undefined)
-0.28	COc1ccc(C2(C(=O)NCc3ccccc3Cl)CCCC2)cc1OC
-1.67	Cc1ccc(NC(=O)CSc2nc3c(cc2C#N)CCCCC3)cc1
0.2	COc1ccccc1CN1C(=O)CN(C2CCCCCC2)C(=O)C1c1ccc(C)cc1 (centres undefined)
0.73	Cc1ccccc1Cn1cc(SCC(=O)NC2CCCCC2)c2ccccc21
1.44	COc1ccc(C)cc1NC(=O)CN(C)S(=O)(=O)c1ccc(Br)s1
-0.26	O=C(CCC1Nc2c3ccccc3nc(=S)n2C1=O)NC1CCCC1 (centres undefined)
0.56	O=C1C2CC=C(Cl)CC2C(=O)N1CCCCO (centres undefined)
-0.8	O=C(Cn1nc(-c2ccccc2)c2ccccc2c1=O)N1CCN(c2ccccc2)CC1
0.07	CC(=O)Oc1cc2c([N+](=O)[O-])c(C)oc2c2ccccc12
-0.6	COc1cc2c(cc1NC(=O)COc1ccc(Cl)cc1C)oc1ccccc12
-0.85	Cc1cc(Br)ccc1NC(=O)CCCn1c2ccccc2c(=O)c2ccccc21

Next section (6 carried over from the part before).
Measles inh	SMILES
-0.26	O=C(CCC1Nc2c3ccccc3nc(=S)n2C1=O)NC1CCCC1 (centres undefined)
0.56	O=C1C2CC=C(Cl)CC2C(=O)N1CCCCO (centres undefined)
-0.8	O=C(Cn1nc(-c2ccccc2)c2ccccc2c1=O)N1CCN(c2ccccc2)CC1
0.07	CC(=O)Oc1cc2c([N+](=O)[O-])c(C)oc2c2ccccc12
-0.6	COc1cc2c(cc1NC(=O)COc1ccc(Cl)cc1C)oc1ccccc12
-0.85	Cc1cc(Br)ccc1NC(=O)CCCn1c2ccccc2c(=O)c2ccccc21
-0.02	CCOC(=O)C1C(=O)C=C(c2cccc(OC)c2)CC1c1ccc(OC)c(OC)c1 (centres undefined)
-0.15	CCN(CC)C(=O)c1cccc(C(=O)N(CC)CC)c1
-1.68	CCN(CC)CCn1c(=S)[nH]c2cc(C(=O)NCC3CCCO3)ccc2c1=O (centres undefined)
-1.11	CCN1C(=O)NC(c2ccc([N+](=O)[O-])cc2)C(C(=O)OC(C)C)=C1C (centres undefined)
-1.66	CC(C)c1ccc(NC(=O)c2ccc(F)c(S(=O)(=O)N3CCCCCC3)c2)cc1
0.92	CCOC(=O)c1ccc2nc(C34CC5CC(CC(C5)C3)C4)ccc2c1
0.13	c1coc(CN2CCN(Cc3ccncc3)CC2)c1
-0.54	Cc1cccc(Cl)c1NC(=O)C1CC(=O)N(c2ccc(Br)cc2)C1 (centres undefined)
0.41	COc1ccccc1CN1CCN(Cc2cccc([N+](=O)[O-])c2)CC1
-0.31	O=C1c2ccccc2-c2onc3c(N4CCN(Cc5ccc6c(c5)OCO6)CC4)cc(Nc4ccc5c(c4)OCO5)c1c23
-1.98	CC(C)Nc1ncnc(Cl)c1[N+](=O)[O-]
-0.37	Cc1sc2ncn(CC(=O)NCC(=O)N(C)C3CCCCC3)c(=O)c2c1C
0.29	COc1ccccc1C1NC(=O)NC(C)=C1C(=O)OC(C)C (centres undefined)
-0.98	COC(=O)c1cc(COc2ccc3c(C)c(C)c(=O)oc3c2)c(C)o1
-0.95	Cc1cc(C)cc(N2C(=O)CS(=O)(=O)C2c2ccccc2Br)c1 (centres undefined)
-0.74	COC(=O)c1c(NS(=O)(=O)c2ccc(C)cc2)sc(C)c1C
-0.06	CCSc1nnc(-c2cccc([N+](=O)[O-])c2)n1C
-1.09	Cc1ccc(CNC(=O)c2cnc3n(c2=O)CCS3)cc1
0.95	CCOC(=O)c1cnc2c(OC)cccc2c1N1CCN(c2ccccn2)CC1
1.17	Cn1c(=O)c2c(nc(NCCOCCO)n2Cc2ccccc2Br)n(C)c1=O
-0.57	Nc1nonc1-c1noc(COc2ccc(F)cc2)n1
-1.07	CCc1ccc(C2OC3(C(=O)c4ccccc4C3=O)C3C(=O)N(c4cccc(F)c4)C(=O)C23)cc1 (centres undefined)
-0.27	CC1(C)CC(=O)c2cc(C(=O)NCCc3ccccc3)c(=O)n(-c3ccccc3)c2C1
0.33	CC(=O)Nc1ccccc1C(=O)OCC(=O)Nc1ccc(S(N)(=O)=O)cc1
-0.21	O=C(O)c1ccc(N=CC=Cc2ccc([N+](=O)[O-])cc2)cc1
0.22	O=C1Nc2c(Cl)cccc2C1=Nc1ccc(Br)cc1
0	Nc1ccc(Oc2cc(N)cc(Oc3ccccc3)c2)cc1
-1.64	COc1cc(-c2nnc(SCC(=O)c3ccccc3)o2)cc(OC)c1OC
-0.72	COc1ccccc1NC(=O)c1cc(C(C)(C)C)oc1C
0.65	CC(=O)CSc1nc2c(c(=O)[nH]c(=O)n2C)n1CC(N)=O
2.53	COC(=O)c1ccc(NC(=O)C2CC=CCC2C(=O)O)cc1 (centres undefined)
-0.17	Cc1cc(OCc2nc(-c3nonc3N)no2)cc(C)c1Cl
-0.17	CCOC(=O)C(=O)Nc1cc2oc3ccccc3c2cc1OC
-0.92	O=C(COc1ccccc1)N1CCN(S(=O)(=O)c2ccc(Cl)cc2)CC1
1.61	CCOC(=O)c1c(NC(=O)c2cccc(F)c2)sc(C(=O)Nc2ccc(C)cc2C)c1C
0.08	CN(CCNC(=O)c1cnn2c(C(F)(F)F)cc(-c3ccccc3)nc12)Cc1ccccc1
-0.07	CC(NC(=O)CN1N=C(c2ccc(Cl)cc2)CCC1=O)c1ccccc1 (centres undefined)
-0.56	CCOc1ccc2c(c1)C(=O)c1cc(OCC(=O)OC)ccc1-2
-0.51	O=C1C(Cl)=C(Nc2ccccc2)C(=O)N1c1ccccc1N1C(=O)C(Cl)=C(Nc2ccccc2)C1=O
-0.47	O=C(CN1C(=O)c2cccc3cccc1c23)N(Cc1ccccc1)Cc1ccccc1
-0.05	CCOC(=O)C1CCN(c2c(-c3ccccc3)c3cc(Cl)ccc3[nH]c2=O)CC1
0.12	COc1ccc(CN2C(=S)N(Cc3ccccc3)C(=O)C2CC(=O)Nc2ccccc2)cc1 (centres undefined)
0.46	Cc1ccccc1Oc1ccc(S(=O)(=O)NCCC(=O)O)cc1
0.52	O=C(OCc1ccc([N+](=O)[O-])cc1)c1ccc(C(=O)OCc2ccc([N+](=O)[O-])cc2)cc1
1.63	Cc1cccnc1NC(=O)c1c(O)c2cc(F)cc3c2n(c1=O)C(C)CC3 (centres undefined)
-0.45	COc1ccc(-c2cc3ccccc3n2CC(O)CN2CCOCC2)cc1 (centres undefined)
0.49	Cc1ccc(CNc2nc3c(c(=O)n(C)c(=O)n3C)n2Cc2ccc(Cl)cc2)cc1
-0.52	Cc1cc(C)cc(-n2ccnc2SCC(=O)Nc2ccc(F)cc2)c1
-1.97	CC1(C)CC(=O)C2=C(C1)NC1=C(C(=O)c3ccccc31)C2c1cccc(O)c1 (centres undefined)
0.49	CCOC(=O)c1cnc2cc(-c3ccc(Cl)cc3)nn2c1-c1ccccc1
-0.63	OCC1(CO)COC(c2ccccc2)=N1
